# AID923: qHTS Assay for Allosteric/Competitive Inhibitors of Caspase-1: Spectroscopic Profiling in AFC Spectral Region | Potency, µM (series often up to 57.5 µM), without a hit: top-dose fluorescence increase, actives largely listed as activators | AID 923, 2007 | compound fluorescence, AFC spectral region (405/520 nm); almost no hit is shown here | hit rate 1.1% among 75,000; active = well fitted activation curve with a large enough effect; inconclusive = small, poorly fitted or top-dose-only effect;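 note: potency is the fitted concentration of half-maximal effect; 0% is about no effect; scaled to a free AFC standard on each plate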
#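 Titrations up to 57 uM read every 20 sec for 3 min (405/520 nm) with 50 nM caspase 1 and 5 uM Ac-WEHD-AFC, pH 7.5 HEPES buffer. Fluorescence-vs-time intercept gave baseline, scaled against on-plate AFC standard.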
# TSHR ag: TSH receptor (human) agonism; hit rate 0.48% among 73,000; HEK293-CNG-TSHR cells (CNG channel as cAMP sensor), membrane potential dye, cAMP; P16473; AID 926; Potency, µM (titrated, usually from 57.1 µM), for inactives: top-dose activation, actives largely listed as activators; active = well fitted activation curve of enough size with the parental cells flat; inconclusive = any curve in the parental cells; inactive = parental cells flat and receptor cells flat or falling; note: potency is the fitted concentration of half-maximal effect; % of control where 0% means no effect; weak receptor curves with flat parental cells got no call and are not listed
# Target sequence (P16473 whole entry, looked up): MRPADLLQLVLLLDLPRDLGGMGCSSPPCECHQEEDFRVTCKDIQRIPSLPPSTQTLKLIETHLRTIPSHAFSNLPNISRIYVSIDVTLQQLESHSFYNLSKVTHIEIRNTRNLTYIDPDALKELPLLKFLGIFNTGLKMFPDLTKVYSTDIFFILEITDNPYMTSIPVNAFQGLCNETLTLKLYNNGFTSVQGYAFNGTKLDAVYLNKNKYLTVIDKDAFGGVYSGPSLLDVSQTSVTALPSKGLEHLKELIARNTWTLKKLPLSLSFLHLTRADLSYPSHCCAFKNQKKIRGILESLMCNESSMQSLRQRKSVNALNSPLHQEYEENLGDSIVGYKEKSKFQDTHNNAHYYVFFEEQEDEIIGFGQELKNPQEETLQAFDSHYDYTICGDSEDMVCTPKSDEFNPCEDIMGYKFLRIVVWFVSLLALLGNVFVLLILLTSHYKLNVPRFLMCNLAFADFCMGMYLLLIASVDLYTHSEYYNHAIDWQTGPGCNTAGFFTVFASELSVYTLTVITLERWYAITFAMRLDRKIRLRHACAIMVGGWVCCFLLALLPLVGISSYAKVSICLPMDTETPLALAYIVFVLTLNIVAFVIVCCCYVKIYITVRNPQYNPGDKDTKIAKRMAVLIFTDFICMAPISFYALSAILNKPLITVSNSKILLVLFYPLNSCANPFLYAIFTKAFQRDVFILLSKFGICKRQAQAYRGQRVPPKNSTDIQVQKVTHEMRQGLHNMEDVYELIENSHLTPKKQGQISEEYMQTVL
#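 HEK 293 cells stably expressing TSHR and a modified CNG channel, with CNG-only parental cells as counterscreen, were preloaded 60 min at room temperature with membrane potential dye containing 100 uM RO 20-1724. Compound exposure was 30 min, and depolarization was read as fluorescence at 590 nm.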
# A647 autofl: compound autofluorescence in A647 spectral region. Compound fluorescence, A647 channel (570/671 nm), Tris buffer. 59,000 tested, under 10 active. max dye-equivalent concentration, M; active means above 1 µM dye equivalent; inconclusive means 0.1 to 1 µM; inactive means 0.1 µM or less;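 note: values scaled relative to a standard on each plate; highest value over a series up to 38 µM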
#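 Compounds pinned into 100 mM Tris pH 8.0, 15 min at room temperature, then read with 570 nm excitation/671 nm emission filters. Fluorescence normalized to an on-plate six-point Alexa 647 standard curve, giving dye-equivalent concentration per compound concentration.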
# Resorufin autofl: compounds fluorescent in resorufin spectral region. Compound fluorescence, resorufin region 547/598 nm, buffer; active compounds read high. AID 588. max dye-equivalent concentration, M. hit rate 0.04% among 59,000; active = above 10 nM dye equivalent; inconclusive = 1 to 10 nM; inactive = 1 nM or less; a few of its hits are not listed in these tables; note: highest value over a series up to 38 µM
#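 Dye-equivalent concentration values derive from comparing each well's 547/598 nm fluorescence against resorufin standards included on every plate. Incubation was 15 min at room temperature in 100 mM Tris, pH 8.0.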
# A488 autofl: compound autofluorescence in A488 spectral region; max dye equivalency, M; hit rate 0.1% among 59,000; AID 591; compound autofluorescence, A488 spectral region, dye equivalency; active compounds read high; active = above 10 nM dye equivalent; inconclusive = 1 to 10 nM; inactive = 1 nM or less; about half of its hits are not listed in these tables;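 note: highest value over a series up to 38 µM; compound alone in buffer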
#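 Compounds pin-transferred into 100 mM Tris buffer, pH 8.0, incubated 15 min at room temperature, then imaged with 480 nm excitation/540 nm emission filters. Fluorescence converted to Alexa 488 dye-equivalent concentration via an on-plate six-point A488 standard curve.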
# * hit, by the source's call; i = inactive; ? = inconclusive; · = not tested or not shown; & = joins results of further samples; ! = repeats disagree; [ ] = dose if it differs, or a comment.
structure	A647 autofl	AID923	TSHR ag	Resorufin autofl	A488 autofl
COc1cc(C2c3c(n[nH]c3C)C(=O)N2c2ccc(C)cc2)ccc1O (stereo not drawn)	3.84e-08	-0.4%	1.9%	i	i
Cn1cc(NC(=O)c2cc(NC(=O)c3cc(NC=O)cn3C)cn2C)cc1C(=O)NCCC(=N)N	1.7e-09	·	·	i	i
CCOC(=O)c1cnc(-c2ccccc2)[nH]c1=O	4.72e-08	-0.2%	1.7%	i	i
c1ccc2c(c1)ccc1nnc(-c3ccc4c(c3)OCO4)n12	·	-0.7%	14.5%	·	·
Cc1c(C(Nc2ccccn2)c2ccc(Cl)cc2)c(=O)n(-c2ccccc2)n1C (stereo not drawn)	4e-09	0.1%	?	i	i
COc1ccccc1OCCCn1c(=O)sc2ccccc21	1e-09	-0.7%	?	i	i
CCSc1nc2c(c(=O)[nH]c(=O)n2C)n1C/C=C(/C)Cl	1e-09	-0.1%	8.2%	i	i
CN(Cc1cc(=O)[nH]c2ccccc12)C(=O)c1ccccc1	8.1e-09	-0.3%	-0.1%	i	i
CC(C)NC[C@H](O)COc1ccc(CC(N)=O)cc1	6.6e-09&1.21e-08&3.6e-09&3.49e-08&2.63e-08	-6.2%	12.4%	i	i
COc1ccc(Cl)cc1S(=O)(=O)n1cnc2ccccc21	·	-1.1%	2.7%	·	·
CCOC(=O)C(C(=O)OCC)C(=O)c1cc(OC)c(OC)c(OC)c1	6.2e-09	-2.1%	4.9%	i	i
CCN(CC)CCCNC(=O)c1ccc(Cc2nc3ccccc3[nH]2)cc1	·	0.4%	-4.3%	·	·
CN(CCC#N)C(=O)COC(=O)c1ccc(Cl)c(S(N)(=O)=O)c1	3.1e-09	0.8%	7.2%	i	i
CCOC(=O)c1cc(-c2cccs2)nc2onc(C)c12	2.51e-08	10.6%	4.4%	i	i
O=C(O)CCCC(=O)Nc1ccc(Cl)c(Cl)c1	·	1.4%	7.4%	·	·

# Next entries.
structure	A647 autofl	AID923	TSHR ag	Resorufin autofl	A488 autofl
O=C(NCc1cccnc1)C1CCCN(S(=O)(=O)c2ccccc2)C1 (stereo not drawn)	1.2e-09	2.3%	-2.9%	i	i
Cn1c(=O)c2nc(Cl)n(Cc3ccc(Cl)cc3Cl)c2n(C)c1=O	4.33e-08	-0.6%	·	i	i
COc1ccc(Oc2c(-c3ccc(O)cc3O)n[nH]c2C)cc1	1e-09	0.5%	15.0%	i	i
O=C(NCC1COc2ccccc2O1)c1ccc(Cl)cc1 (stereo not drawn)	5.71e-08	-0.1%	?	i	i
CN[C@H](CC(=O)O)C(=O)O	5.3e-09	-2.1%	0.794µM*!	i	i
CCOC(=O)c1ccccc1NCN1C(=O)CSC1=O	·	-1.9%	5.4%	·	·
CC1Cc2ccccc2N1C(=O)CCNS(=O)(=O)c1ccc2c(c1)CCC(=O)N2 (stereo not drawn)	4.32e-08	2.1%	18.2%	i	i
COc1ccc2c(Cl)c(-c3nnco3)sc2c1	5.82e-08	-1.3%	2.3%	i	i
COCCNC(=O)COc1ccc(Nc2ccccc2)cc1	1.23e-08	0.5%	-4.7%	i	i
O=C(NCc1ccco1)c1ccc(S(=O)(=O)N2CCCc3ccccc32)cc1	1e-09	0.0%	·	i	i
CCOC(=O)Cc1nnc(NC(=O)c2ccccc2OCC)s1	·	0.4%	?	·	·
COC(=O)c1cc(Cl)c(NC(=O)c2ccco2)cc1OC	1.44e-08	-5.9%	16.3%	i	i
COC(=O)C1=C(N)Oc2cc(C)n(C)c(=O)c2C1c1ccc(Cl)c(Cl)c1 (stereo not drawn)	8.2e-09	1.8%	?	i	i
Cc1cc(C)nc(Nc2nc(=O)c3ccccc3s2)n1	·	-3.1%	8.9%	·	·
COc1cc(OC)nc(NC(=O)NS(=O)(=O)c2ccc(OC(F)(F)F)cc2)n1	1e-09	1.4%	-2.9%	i	i

# Brought forward from above: 3 compounds; new compounds follow.
structure	A647 autofl	AID923	TSHR ag	Resorufin autofl	A488 autofl
COC(=O)C1=C(N)Oc2cc(C)n(C)c(=O)c2C1c1ccc(Cl)c(Cl)c1 (stereo not drawn)	8.2e-09	1.8%	?	i	i
Cc1cc(C)nc(Nc2nc(=O)c3ccccc3s2)n1	·	-3.1%	8.9%	·	·
COc1cc(OC)nc(NC(=O)NS(=O)(=O)c2ccc(OC(F)(F)F)cc2)n1	1e-09	1.4%	-2.9%	i	i
Cc1cnc(NC(=O)CSc2nc3ccccc3c(=O)[nH]2)s1	1e-09	2.6%	6.0%	i	i
O=C(NCC(c1cccnc1)N1CCOCC1)C1CCCCC1 (stereo not drawn)	1.16e-08	-0.9%	9.2%	i	i
CS(=O)(=O)N1CCN(C(=O)C(Sc2ccccc2)c2ccccc2)CC1 (stereo not drawn)	1.15e-08	0.2%	3.8%	i	i
CC(c1ccco1)N(C(=O)COc1ccc(Cl)cc1Cl)c1ccccn1 (stereo not drawn)	2.2e-09	-1.5%	?	i	i
COc1ccc(CNc2ccnc(-c3c(C)noc3C)n2)c(OC)c1	1.4e-09	1.6%	·	i	i
Cc1cc2c3c(c1)C1(C(=O)N3C(C)(C)CC2C)C(C#N)=C(N)Oc2n[nH]c(C)c21 (stereo not drawn)	7.4e-09	-0.1%	5.7%	i	i
Cn1c(CN2CCC(C(N)=O)CC2)c(C#N)c2ccccc21	6.4e-08	-1.7%	14.3%	i	i
COc1ccc(NC(=O)NS(=O)(=O)c2ccc(C)cc2)c(OC)c1	1e-09	0.4%	-0.8%	i	i
COCON1C(=O)CN(C(C)=O)C1c1ccc(Cl)cc1Cl (stereo not drawn)	3.21e-08	-1.8%	·	i	i
CC(C)(C)c1csc(NC(=O)CSc2nc3ccccc3c(=O)[nH]2)n1	1e-09	0.7%	?	i	i
CC(C)Cn1cnc2c1c(=O)n(CC(=O)Nc1ccc3c(c1)OCO3)c(=O)n2Cc1ccccc1	2.98e-08	-0.4%	1.9%	i	i
Cc1nn2c(-c3ccccc3)c(-c3ccccc3)nc2[nH]c1=O	1e-09	12.9%	-7.0%	i	i
COc1cccc(NC(=O)Cn2cc3c(n2)CCCCC3)c1	·	-0.2%	1.1%	·	·
Fc1ccc(CN2CCCCCCC2)cc1F	·	2.4%	16.8%	·	·
Cc1ccc(S(=O)(=O)NCC(=O)NC2CCCCCC2)cc1	1e-09	-2.8%	-1.1%	i	i

# Other records:
structure	A647 autofl	AID923	TSHR ag	Resorufin autofl	A488 autofl
CCn1cc(/C=C(/C#N)S(=O)(=O)c2ccccc2)cn1	5.6e-09	-2.5%	6.7%	i	i
O=C(COC(=O)c1cccs1)NCc1ccccc1	1e-09	0.6%	1.0%	i	i
COc1ccc(Cl)cc1NC(=O)CN(C1CCCCC1)S(C)(=O)=O	3.34e-08	0.8%	14.6%	i	i
O=C(Nc1ccccc1)N1CC2(CCN(C(=O)c3cc(C(F)(F)F)cc(C(F)(F)F)c3)CC2)C1	1.46e-08	-1.3%	28.3%	i	i
Cc1nc(CN2CCN(C(=O)NC3(c4ccccc4)CC3)CC2)cs1	1.98e-08	-2.6%	-0.9%	i	i
CC(=O)c1cccc(NC(=O)c2cnn3ccccc23)c1	·	-0.7%	3.8%	·	·
N#Cc1nc(COc2ccccc2F)oc1NCCc1ccccc1	7e-09	11.0%	?	i	i
Cc1cc2c(cc(C(=O)OCC(=O)NCc3cccs3)n2C(C)C)o1	1e-09	1.5%	?	i	i
CN(C)C(=O)c1ccc(-c2cc(Nc3ccccc3)ncn2)cc1	7.9e-09	2.0%	9.0%	i	i
Cc1ccc(OCCn2nc3ccccc3n2)c(C)c1	1.8e-09	-0.8%	25.9%	i	i
CCOC(=O)C1CCCN(CCC(=O)Nc2c(C(=O)OC)[nH]c3cc(OC)ccc23)C1 (stereo not drawn)	8.4e-09	0.6%	-0.4%	i	i
Cn1cccc1C(=O)N1CCC[C@@]2(CCN(Cc3ccc(C#N)cc3)C2)C1	2.09e-08	3.1%	6.8%	i	i
Cc1cc(C)n(-c2nc3ccccc3nc2Nc2ccc3[nH]c(=O)[nH]c3c2)n1	1e-09	14.0%	?	i	i
O=C1c2c(O)cc(O)cc2O[C@@H](c2ccc(O)c(O)c2)[C@H]1O	2.55e-08	-4.2%	12.9%	i	i
CC(=O)c1cccc(NC(=O)COc2ccccc2)c1	1e-09	1.2%	-5.9%	i	i

# The listing continues.
structure	A647 autofl	AID923	TSHR ag	Resorufin autofl	A488 autofl
CNc1nc(Nc2ccc(C(C)=O)cc2)nc(OC(C(F)(F)F)C(F)(F)F)n1	·	-0.2%	-4.8%[11.4 µM]	·	·
CCCCNC(=O)CSc1nccn1Cc1ccccc1	·	0.3%	7.0%	·	·
O=C(CSc1ccc(Cl)cc1)N1CCOCC1	9.5e-09	2.4%	-5.1%	i	i
COC(=O)Cc1c(C)nc2nc(-c3cccnc3)[nH]n2c1=O	1.6e-09	-0.4%	-11.5%	i	i
O=C(Cn1cccc1)Nc1ccc(F)cc1F	2.14e-08	0.9%	5.1%[11.4 µM]	i	i
Cc1c(C(=O)NCC2CCCO2)oc2ccc3c(c12)C(=O)CC(C)(C)O3 (stereo not drawn)	·	2.3%	12.2%	·	·
Cc1ccc(Nc2nc(C(=O)N3CCC(C(=O)NCCN4CCOCC4)CC3)cs2)cc1	3.85e-08	-0.8%	-1.0%	i	i
O=C1CC(N2CCN(c3ccccc3Cl)CC2)C(=O)N1c1cccc(F)c1 (stereo not drawn)	5.7e-09	-1.7%	2.9%	i	i
C[C@@H]1CC[C@H]2[C@H](C)[C@H]3[C@H](C[C@H]4[C@@H]5CC=C6C[C@@H](O)CC[C@@]6(C)[C@@H]5C[C@@H](O)[C@]34C)N2C1	2.4e-09	1.3%[11.5 µM]	7.1%[11.4 µM]	i	i
CCC(C)C(NC(=O)OC(C)(C)C)C(=O)NCc1ccco1 (stereo not drawn)	1.14e-08	1.6%	1.7%	i	i
O=C(NCc1cccs1)c1ccncc1	2.36e-08	-1.2%	2.2%	i	i
CCCN(CCC)C(=O)C1c2ccccc2Oc2ccccc21	·	0.5%	?	·	·
O=C1c2cccnc2C(Nc2ccc(S(=O)(=O)N3CCCCC3)cc2)N1Cc1ccccc1 (stereo not drawn)	1.4e-09	-0.1%	-1.6%	i	i
O=C(O)c1ccc(COc2c(F)c(F)cc(F)c2F)cc1	1e-09	-0.5%	3.5%	i	i
CCNC(=O)CC1C(=O)N(c2ccccc2)C(=O)N1Cc1ccc(OC)cc1 (stereo not drawn)	1.2e-08	-0.5%	-2.7%	i	i

# New compounds follow.
structure	A647 autofl	AID923	TSHR ag	Resorufin autofl	A488 autofl
C=CCNc1nc2c(c(=O)n(C)c(=O)n2C)n1Cc1ccc(F)cc1	·	-2.9%	?	·	·
CCCNC(=O)C(Cc1ccccc1)NS(=O)(=O)c1cccc2nsnc12 (stereo not drawn)	1.35e-08	0.5%	9.4%	i	i
COc1ccccc1CCn1c(=O)c(-c2cc(F)cc(F)c2)nc2cncnc21	3.66e-08	3.3%	?	i	i
CCN1CCN(Cc2ccc3c(c2)Cc2ccccc2-3)CC1	·	-0.4%	10.0%	·	·
OB(O)c1ccc(Cl)s1	·	-0.3%	?	·	·
O=C(O)COCCN1CCN([C@@H](c2ccccc2)c2ccc(Cl)cc2)CC1	3.3e-09	1.9%[25.7 µM]	-1.5%[25.6 µM]	i	i
Cc1cc(=O)[nH]c(SCC(=O)Nc2nnc(CC(C)C)s2)n1	1.5e-09	0.9%	2.9%	i	i
CC1(C(=O)NC2CCCC2)CCC(=O)N1CCC1=CCCCC1 (stereo not drawn)	1e-09	-0.6%	7.2%	i	i

# Some of the compounds tested; count on the stated rates, not on these rows.
